Source: PubChem (several laboratories)
T cruzi inh – blocks replication of Trypanosoma cruzi; T. cruzi beta-gal in NIH3T3, luminescence, 90 h; AID 1885; 300,000 tested, 1.4% active; inhibition, % (concentration not given with the values);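 active = mean inhibition across valid replicates above about 55%, limit read from the data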;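 also: signal also drops with host cell toxicity which is not excluded here; 0% = plate median of DMSO wells and 100% = zero luminescence signal; higher percent means less beta-gal luminescence so fewer parasites; stock transfer was 50 nL into about 50 µL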
FGF22 binding – shifts melting point of recombinant human FGF22 | calls only at 9.99 µM | 340,000 tested, 1.5% active | recombinant FGF22 thermal shift, SYPRO orange fluorescence; percent of sucrose octasulfate shift, DMSO zero | Q9HCT0;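 active = melting point raised past a set limit in the mean and every replicate; three in four hits are not shown here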
AF4-AF9 inh – inhibitors of human MLL-AF4/AF9 interaction. P42568. AlphaScreen, biotin-AF4 peptide binding to FLAG-AF9. inhibition, % at 10 µM. 350,000 tested, 0.47% active;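 active = every replicate reaching a set inhibition limit, whatever the replicate mean, cut at about 25% in these data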;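 also: 0% = plate neutral control median and 100% = total signal loss; the record names both 10 and 1 µM as test concentration; the first replicate is given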
Target sequence (P42568 whole entry, looked up): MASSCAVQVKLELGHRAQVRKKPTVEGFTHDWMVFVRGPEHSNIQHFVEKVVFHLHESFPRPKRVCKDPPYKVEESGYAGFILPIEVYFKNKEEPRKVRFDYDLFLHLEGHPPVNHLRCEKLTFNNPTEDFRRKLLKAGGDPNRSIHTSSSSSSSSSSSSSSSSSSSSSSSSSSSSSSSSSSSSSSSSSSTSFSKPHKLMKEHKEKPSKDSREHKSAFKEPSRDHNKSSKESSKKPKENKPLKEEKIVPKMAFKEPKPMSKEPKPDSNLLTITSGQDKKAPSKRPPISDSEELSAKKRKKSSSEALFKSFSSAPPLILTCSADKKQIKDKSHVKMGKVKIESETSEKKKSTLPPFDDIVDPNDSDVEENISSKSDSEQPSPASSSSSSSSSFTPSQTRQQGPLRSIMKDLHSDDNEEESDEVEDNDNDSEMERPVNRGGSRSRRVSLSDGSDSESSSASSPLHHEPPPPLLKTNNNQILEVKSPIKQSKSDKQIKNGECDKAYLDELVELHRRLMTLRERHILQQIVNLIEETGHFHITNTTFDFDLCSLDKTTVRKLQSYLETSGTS
Bfl-1 A1 inh – inhibitors of the anti-apoptotic protein A1, read as caspase activation; MEF A1-2A-BIM cells, Caspase-Glo 3/7 luminescence, 3 h; percent of clofoctol response, vehicle zero; caspase activation, % (concentration not given with the values); 330,000 tested, 0.066% active; AID 2462;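 active = over half of replicate activation scores above 10%, or exactly half above 10 with the replicate mean above 10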;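 also: wells of about 30 µL received 50 nL stock; many hits fall short of the cut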
UCH37 inh – human UCH37 deubiquitinating enzyme inhibition; 330,000 tested, 0.33% active; purified proteasome/UCH37, Ub-AMC cleavage fluorescence; inhibition, % (test concentration not listed);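 active = mean of two replicates above 20%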;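 also: 0% = compound-free wells with enzyme and 100% = wells lacking proteasome; stock transfer was 100 nL into about 20 µL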
Target sequence (Q9Y5K5 whole entry, looked up): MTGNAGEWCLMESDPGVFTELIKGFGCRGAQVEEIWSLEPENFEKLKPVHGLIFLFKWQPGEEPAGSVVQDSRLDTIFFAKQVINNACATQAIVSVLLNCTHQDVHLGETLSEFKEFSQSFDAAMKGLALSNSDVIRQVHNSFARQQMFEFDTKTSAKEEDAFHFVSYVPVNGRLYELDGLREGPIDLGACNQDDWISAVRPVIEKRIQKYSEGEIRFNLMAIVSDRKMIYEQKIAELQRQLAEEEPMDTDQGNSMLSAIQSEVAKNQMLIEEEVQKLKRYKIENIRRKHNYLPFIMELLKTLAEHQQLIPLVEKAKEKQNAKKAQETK
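Test system – human UCH37 enzyme supplied as purified proteasome complex · Incubation – 30 min preincubation with enzyme, 25 min cleavage at room temperature · Detection – AMC fluorescence from Ub-AMC cleavage, excitation 355 nm, emission 460 nm · Benchmarks – no-proteasome wells (full inhibition) and compound-free wells (no inhibition)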
Beta cell apopt – blocks beta cell apoptosis. INS-1E cytokine-induced death, ATP luminescence, 48 h; percent of positive-control rescue, neutral wells zero. protection from apoptosis, % (no concentration beside the values). 300,000 tested, 0.8% active. AID 435005;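 active = all replicates at 75% or more, or half of them and the mean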;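 also: 0% = cytokine-treated negative control wells and 100% = positive control rescue; higher means more ATP so stronger rescue from cytokine killing; wells of about 40 µL received 100 nL stock; the first replicate is given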
Ecoli rRNA inh – inhibits bacterial ribosomal RNA function over humanized ribosomes. AID 720706. 350,000 tested, 1.6% active. GFP signal change (wild-type ribosome), % (concentration not given with the values). E. coli WT GFP vs humanized-ribosome RFP mutants, fluorescence, 24 h; hits give low values; DMSO median 0, no signal -100;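 active = significant combined selectivity score with lowered wild-type GFP, culture density cut under 30%, mutant RFP and density less affected; inactive = any of these conditions unmet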; also: one replicate is shown; some compounds called inactive have numbers as strong as hits
Ecoli growth – blocks Escherichia coli growth. OD600, 23 h; hits give low values. OD600 absorbance (concentration not given with the values). 330,000 tested, 0.21% active;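 active = OD600 absorbance below the run mean of sample wells minus 3.6 SD, in any replicate, cut at about 0.56 in these data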;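 also: stock transfer was 300 nL into about 60 µL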
Ecoli rRNA inh OD600 – second read-out of Ecoli rRNA inh, no call of its own (marks repeat the call); OD600 change, %; measured here: OD600 growth;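 optical density of the mix in the first replicate; 0 = DMSO median and -100 = no signal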
Ecoli rRNA inh RFP – recorded beside Ecoli rRNA inh, whose call it bears; RFP signal change, %; measured here: RFP humanized mutant strains;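 first replicate; 0 = DMSO median and -100 = no signal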
The depositor's hits bear a star; i = inactive; nt = not tested or not shown; & = joins results of further samples. Not all compounds are listed (hit frequency here may not be typical).

Compound	Ecoli rRNA inh OD600	Bfl-1 A1 inh	T cruzi inh	FGF22 binding	AF4-AF9 inh	Beta cell apopt	Ecoli growth	Ecoli rRNA inh	UCH37 inh	Ecoli rRNA inh RFP
Cc1cccc(COc2ncnc3nc[nH]c23)c1	-4	-1.0	-11	nt	-1.2	-6	0.63	1	0.9	-1.8
CCN(CC)c1ccc(SS(=O)(=O)O)cc1	nt	0.7&-0.4	-2&22	nt	nt	-20&-17	0.66&0.75	nt	10&10	nt
Cc1cc(C)n(Cc2ccc(Cl)cc2Cl)c(=O)c1S(=O)(=O)c1ccccc1	nt	-0.1	21	nt	nt	nt	0.77	nt	-0.6	nt
COc1ccc(C)c2sc(N(CCCN(C)C)C(=O)c3ccc(S(=O)(=O)N4CCc5ccccc5C4)cc3)nc12	-64	0.8	50	i	-7.4	nt	0.68	-41	-15	19
Cc1cc(C(=O)OCC(=O)Nc2sc3c(c2C#N)CCC(C)C3)c2ccccc2n1 (centres undefined)	-26	-0.7	-21	i	-1.4	-3	0.69	-25	-2.6	6.3
COc1cccc(N2CCN(S(=O)(=O)c3ccc(-n4cnnn4)cc3)CC2)c1	20	0.1	-8	i	-1.5	1	0.71	9	0.5	1.8
COc1ccccc1N1CCN(C(=O)[C@H](C)NS(=O)(=O)c2ccc3c(c2)OCCCO3)CC1	3	nt	nt	i	1.0	nt	0.68	6	0.2	2.1
CCCC(=O)OCC(=O)Nc1ccccc1C#N	13	0.6	-15	i	-0.7	-4	0.72	6	1.1	3.1
COCc1cc(=O)n2[nH]c(SCc3ccccc3)nc2n1	nt	0.1	-1	nt	nt	-10	0.68	nt	0.9	nt
Cc1ccc(SCCC(=O)OCC(=O)Nc2ccc(C(N)=O)cc2)cc1	5	-1.2	nt	i	-6.9	-1	0.67	6	4.6	-1.2
Cc1ccc(C(=O)Nc2ccccc2C(=O)O)cc1S(=O)(=O)NC1CCCCC1	-21	0.7	-17	i	-0.9	-1	0.7	-23	4.4	0.0
O=C(c1cccs1)N(CCN1CCCCC1)CC1CCCN(C2CCCC2)C1 (centres undefined)	7	-0.3	37	i	7.8	-2	0.67	5	3.9	-0.3
COc1ccc(CNc2nc(SCC(=O)NCc3ccco3)nc3ccccc23)cc1	-22*	-0.7	41	i	-5.1	nt	0.68	-31*	2.6	8.9*
Cc1cc(=O)c2cc(Cl)ccc2[nH]1	3	1.0	-2	i	-2.5	30	0.62	4	-2.3	5.2
COCCNC(=O)C(c1ccc(C)o1)N(Cc1ccccc1)C(=O)Cn1nnc2ccccc21 (centres undefined)	nt	-0.3	0	nt	nt	2	0.71	nt	4.1	nt
Cn1ccnc1C(=O)c1ccc(N)cc1	12	-0.2	-6	i	-17	-2	0.7	7	14	3.5
CNC(=O)/C=C1\NC(C)(C)Cc2c1ccc1ccccc21	nt	0.8	-8	nt	nt	-3	0.77	nt	-1.5	nt
CCOC(=O)c1c(NC(=S)NC(C)=O)sc(C)c1C	nt	0.3	4	i	-0.4	-1	0.73	nt	3.7	nt
Cc1ccn(C(C)CC(=O)N2CCc3ccccc32)n1 (centres undefined)	5	-0.3	-1	i	-1.4	nt	0.72	13	1.1	-0.9
Oc1ccc(Cc2ncc(C(F)(F)F)cc2Cl)cc1	-39	0.6	12	i	0.8	-3	0.69	-37	4.1	-7.3
CN(CC(=O)Nc1ccc(F)c(F)c1F)C1CCCCC1	nt	0.4	0	nt	nt	-1	0.61	nt	2.8	nt
CCN(Cc1cnn(C)c1)C(=O)c1cc(COc2ccc(F)cc2F)on1	-5	-0.3	-11	i	-2.5	-2	0.69	1	0.7	-10
O=C1S/C(=C\c2ccc(N3CCOCC3)o2)C(=O)N1Cc1c(F)cccc1Cl	4	2.1	40	i	-1.3	14	0.7	13	7.5	10
CC1(C)C2C/C(=N\O)C(C)(/[N+]([O-])=C/c3cccc([N+](=O)[O-])c3)CC21 (centres undefined)	11	0.0	3	i	4.5	-12	nt	13	nt	-0.8
COc1ccc(CCNC(=O)CN2CCOc3ccccc32)cc1OC	0	-0.2	-5	i	-2.0	-4	0.75	-1	1.3	-0.2
Cc1ccc(S(=O)(=O)N/N=C/c2ccccc2O)cc1[N+](=O)[O-]	-11	-0.4	-1	nt	-1.5	1	nt	8	nt	-1.6
O=C(CSc1ncnc2c1oc1ccccc12)Nc1cccc(C(F)(F)F)c1	-17	0.8	-14	i	-6.2	nt	0.73	-9	1.2	0.8
CN(C)/C=N/c1nc2nccc(-c3ccccn3)n2n1	7	0.9	0	nt	0.9	-5	nt	7	nt	2.8
Cc1ccc(NC(=O)CC2CS(=O)(=O)CC2CC(=O)Nc2ccc(C)c(C)c2)cc1C (centres undefined)	nt	0.5	2	nt	nt	-1	0.7	nt	-3.9	nt
COc1ccc(OCC(O)Cn2c(Nc3cccc(C)c3)nc3c2c(=O)n(C)c(=O)n3C)cc1 (centres undefined)	22	0.0	8	i	-1.2	6	0.74	4	-18	2.7
O=C(Cc1ccc(-n2c(=O)c3ccccc3n(CC(=O)Nc3ccc(F)cc3F)c2=O)cc1)NCc1ccco1	7	-0.2	-7	i	-3.5	0	0.71	6	-4.4	-6.2
Cc1nn(-c2ccccc2)c(C)c1-c1ccccc1O	-10	-0.6	-8	i	2.5	-7	0.66	-6	0.4	-1.3
O=C(NNC(=O)C1C2C=CC(C2)C1C(=O)O)c1ccccc1 (centres undefined)	12	0.7	4	i	-24	-6	0.7	2	5.2	-1.8
Cc1ccc(OCc2n[nH]c(=S)n2-c2ccc(Br)cc2)cc1	-11	-0.2	5	nt	-6.6	-1	0.69	-9	0.7	3.3
CCOC(=O)C1(CC2CC2)CCN(Cc2ccc(OC)cc2F)CC1	4	0.4	-3	i	-2.1	7	0.7	1	1.7	-1.4
CC(Sc1nncn1C)C(=O)Nc1ccc(Cl)cn1 (centres undefined)	9	-1.0	8	i	-17	5	0.66	6	0.9	1.3
O=C(Nc1ncccn1)c1cc(-c2ccc(F)cc2)nc2ccccc12	-11	1.2	6	i	-0.2	-3	0.73	-16	-6.7	-2.5
C=CCn1c(C2CCCCC2)n[nH]c1=S	6	1.4	-2	i	-2.7	-6	0.7	1	-0.4	0.0
CC1CC2=C(C(=O)O1)C(c1ccc(Cl)cc1)Nc1ccccc1N2 (centres undefined)	20	0.8	-9	i	-1.0	-10	0.69	6	6.3	-7.9
Cn1c(=O)[nH]c(=O)c2c1nc(Br)n2CCC(=O)c1ccccc1	nt	0.5	6	nt	nt	-1	0.68	nt	4.4	nt
O=C(c1ccc2ccccc2n1)N1CCN(c2ccccn2)CC1	5	-0.1	13	i	0.6	10	0.63	1	0.8	-0.6
COc1ccc(OCC(=O)NCCCNC(=O)COc2ccc(OC)cc2)cc1	9	0.7	nt	i	-7.0	-7	0.67	7	3.4	1.7
O=C(CCOc1ccccc1)Nc1cccc([N+](=O)[O-])c1	10	0.3	-8	i	10	-3	0.69	7	1.7	3.8
CC(=O)Nc1cccc(NS(=O)(=O)c2c(C)noc2C)c1	5	-0.1	nt	i	-4.8	2	0.7	13	-0.4	2.5
C#CCOC(=O)c1ccccc1C(=O)OCC#C	nt	0.0	-10	nt	nt	0	0.75	nt	5.0	nt
CCc1ccc(-c2nc(CS(=O)CC(=O)NCc3ccc4c(c3)OCO4)c(C)o2)cc1 (centres undefined)	1	0.1	-2	i	-3.5	2	0.63	0	-0.9	7.5
Cc1ccc(S(=O)(=O)N(CC(=O)NCc2ccncc2)Cc2ccccc2F)cc1	-9	0.2	8	i	0.2	-4	0.67	-6	0.8	2.8
CC(=O)c1c(C)[nH]c(C(=O)COC(=O)c2cccs2)c1C	11	0.1	nt	i	-0.3	-3	0.71	14	1.2	1.7
COc1cc(C2c3c(-c4cc(Cl)c(C)cc4O)n[nH]c3C(=O)N2Cc2cccnc2)ccc1O (centres undefined)	nt	0.3	8	nt	nt	32	0.67	nt	4.9	nt
CCN(Cc1ccc(N(C)C)cc1)C(C)C(=O)Nc1ccc(S(=O)(=O)N2CCCC2)cc1 (centres undefined)	2	0.9	nt	i	15	0	0.65	4	3.6	-9.1
O=C(COc1ccc2c3c(c(=O)oc2c1)CCC3)c1ccc2c(c1)OCO2	18	0.0	19	nt	nt	1	0.67	18	-23	4.7
O=S(=O)(NCc1ccccc1)c1ccc(S(=O)(=O)N2CCCCC2)cc1	nt	0.6	15	nt	nt	3	0.76	nt	7.4	nt
CCOC(=O)C1CCN(C(=O)c2ccccc2N(C)S(C)(=O)=O)CC1	nt	0.0	-10	nt	nt	0	0.69	nt	2.0	nt
COc1ccc(N2CCN(c3ccc([N+](=O)[O-])cc3Cl)CC2)cc1	nt	0.5	-9	nt	nt	0	0.74	nt	3.4	nt
CC1CCc2sc(C(=O)NNS(=O)(=O)c3ccc(F)c(F)c3F)cc2C1 (centres undefined)	-49	-0.7	-6	nt	2.1	-13	0.66	-19	4.1	17
Cc1ccc(N(CC(=O)Nc2ccc(F)cc2)S(=O)(=O)N2CCCC2)cc1	nt	0.0	-8	nt	nt	nt	0.69	nt	4.4	nt
O=C(CSc1ncccn1)NC(=O)Cc1ccccc1	10	1.6	nt	i	-0.3	-1	0.64	6	2.6	-3.1
O=C(O)CCC(=O)N1CCc2cc(S(=O)(=O)N3CCN(c4ccc(F)cc4)CC3)ccc21	-7	0.3	4	i	6.4	-2	0.76	-2	4.9	-4.9
CCC(C)(C(=O)NC1CCCCC1)N(C(=O)CNC(=O)c1ccccc1)c1c(C)n(C)n(-c2ccccc2)c1=O (centres undefined)	18	0.1	-10	i	-1.9	-9	0.73	29	0.3	1.5
C/C=C(\C)c1nnc(NC(=O)C(C)C)s1	nt	0.0	3	nt	nt	2	0.74	nt	3.1	nt
CCOC(=O)c1c(S(=O)(=O)NCC(=O)N2CCN(c3cccc(OC)c3)CC2)c(C)n(C)c1C	1	2.9	-5	i	-4.4	-6	0.7	-3	1.6	-0.2
